Source: PubChem (several laboratories)
Bfl-1 A1 inh: inhibitors of the anti-apoptotic protein A1, read as caspase activation; hit rate 0.066% among 330,000; MEF A1-2A-BIM cells, Caspase-Glo 3/7 luminescence, 3 h; percent of clofoctol response, vehicle zero; caspase activation, % (no concentration beside the values);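 active = over half of replicate activation scores above 10%, or exactly half above 10 with the replicate mean above 10; inconclusive = replicate mean below 10 yet half the replicates above 10; inactive = over half of replicates below 10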;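 note: wells of about 30 µL received 50 nL stock; many hits fall short of the cut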
Beta cell apopt: blocks beta cell apoptosis; INS-1E cytokine-induced death, ATP luminescence, 48 h; percent of positive-control rescue, neutral wells zero; protection from apoptosis, % (no concentration beside the values); hit rate 0.8% among 300,000;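 active = all replicates at 75% or more, or half of them and the mean; inconclusive = half reach 75% but not the mean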;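 note: 0% = cytokine-treated negative control wells and 100% = positive control rescue; higher means more ATP so stronger rescue from cytokine killing; wells of about 40 µL received 100 nL stock; the first replicate is given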
Beta2AR agonist: activates human beta-2 adrenergic receptor causing internalization. Am2.2-beta2AR cells, FAP receptor internalization, flow cytometry; reference of the scale not given here. response, % (test concentration not listed). hit rate 0.43% among 340,000. AID 504454;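 active = response above a set limit, near 3 SD of response in nonfluorescent compounds, cut at about 42% in these data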;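 note: stock transfer was 100 nL into about 11 µL; a reference agonist was the positive control; negative values mostly stem from fluorescent compounds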
LANA-H2B inh: blocks KSHV LANA binding to histone H2A/H2B; Q9QR71; cell-free LANA-H2A/H2B peptide, fluorescence polarization; inhibition, % (no concentration beside the values); hit rate 0.6% among 320,000; AID 2629; in the data active = inhibition mostly above about 10%, no sharp cut-off; inactive = mostly below about 6.7%;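 note: stock transfer was 7.5 nL into about 10 µL; 0% = median of vehicle wells and 100% = median of positive control wells; one replicate is shown; the record names a cut of 25% in any replicate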
Target sequence (Q9QR71 whole entry, looked up): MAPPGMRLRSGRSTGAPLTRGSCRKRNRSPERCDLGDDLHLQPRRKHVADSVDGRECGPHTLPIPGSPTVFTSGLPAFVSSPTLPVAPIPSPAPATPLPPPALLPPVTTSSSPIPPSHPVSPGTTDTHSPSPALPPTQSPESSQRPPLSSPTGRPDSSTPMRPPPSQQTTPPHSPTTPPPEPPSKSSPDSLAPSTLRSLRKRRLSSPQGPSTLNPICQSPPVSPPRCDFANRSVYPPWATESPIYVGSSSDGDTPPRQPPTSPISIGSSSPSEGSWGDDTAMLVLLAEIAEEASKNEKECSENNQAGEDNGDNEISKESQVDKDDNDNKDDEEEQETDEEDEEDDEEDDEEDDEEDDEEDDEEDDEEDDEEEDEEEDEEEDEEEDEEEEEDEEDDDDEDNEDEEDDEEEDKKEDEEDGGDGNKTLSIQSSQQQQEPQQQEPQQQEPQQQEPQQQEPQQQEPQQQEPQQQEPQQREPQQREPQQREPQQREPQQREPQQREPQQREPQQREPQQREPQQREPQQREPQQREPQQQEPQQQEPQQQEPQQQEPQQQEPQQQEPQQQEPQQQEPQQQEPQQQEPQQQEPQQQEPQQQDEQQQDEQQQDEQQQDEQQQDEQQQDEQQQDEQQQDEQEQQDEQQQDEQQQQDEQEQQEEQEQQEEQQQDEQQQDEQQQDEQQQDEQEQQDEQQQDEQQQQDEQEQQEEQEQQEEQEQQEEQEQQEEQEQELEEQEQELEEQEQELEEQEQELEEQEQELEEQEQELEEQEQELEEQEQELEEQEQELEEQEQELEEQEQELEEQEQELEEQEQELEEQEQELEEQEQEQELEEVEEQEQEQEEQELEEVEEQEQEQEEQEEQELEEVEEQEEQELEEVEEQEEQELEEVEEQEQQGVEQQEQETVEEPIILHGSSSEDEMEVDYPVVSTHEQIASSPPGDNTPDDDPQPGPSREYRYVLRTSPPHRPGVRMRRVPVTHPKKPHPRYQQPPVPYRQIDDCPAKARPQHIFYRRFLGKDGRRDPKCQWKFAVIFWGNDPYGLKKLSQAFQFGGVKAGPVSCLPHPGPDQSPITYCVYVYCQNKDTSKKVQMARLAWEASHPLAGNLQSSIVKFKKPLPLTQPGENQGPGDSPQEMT
RanGTP-Imp inh: inhibitors of RanGTP-importin-beta interaction, primary screen, biochemical, FRET, CFP-Ran, YFP-importin-beta, homogeneous | cell-free CFP-Ran/YFP-importin-beta FRET ratio | inhibition, % (concentration not given with the values) | hit rate 1.1% among 300,000;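 active = most replicates above 15%; inconclusive = exactly half above 15%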;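 note: 0% = DMSO wells and 100% = Ran loaded with GDP instead of GTP; wells of about 40 µL received 100 nL stock; the first replicate is given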
T cruzi repl: blocks replication of Trypanosoma cruzi; AID 1885; hit rate 1.4% among 300,000; T. cruzi beta-gal in NIH3T3, luminescence, 90 h; inhibition, % (test concentration not listed);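 active = mean inhibition across valid replicates above about 55%, limit read from the data; inconclusive = mean below that limit but half or more replicates reach it; inactive = mean below it, under half of replicates reach it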;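 note: signal also drops with host cell toxicity which is not excluded here; 0% = plate median of DMSO wells and 100% = zero luminescence signal; higher percent means less beta-gal luminescence so fewer parasites; stock transfer was 50 nL into about 50 µL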
Calb FLC: affects C. albicans growth with fluconazole. C. albicans CaCi-2 (fluconazole-resistant clinical isolate) + fluconazole, Alamar Blue growth, 48 h. growth inhibition, % (concentration not given with the values). hit rate 0.57% among 300,000;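 active = most replicates above 75%; inconclusive = exactly half above 75%; inactive = most below 75%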;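 note: all wells also contain fluconazole at 8 µg/ml as a sub-toxic cotreatment; 0% = median of DMSO wells and 100% = median of geldanamycin control wells; wells of about 8 µL received 7.5 nL stock; the first replicate is given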
UCH37 DUB inh: inhibitors of human deubiquitinating enzyme UCH37 | Q9Y5K5 | purified proteasome/UCH37, Ub-AMC cleavage fluorescence | inhibition, % (no concentration beside the values) | hit rate 0.33% among 330,000 | AID 588478;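 active = mean of two replicates above 20%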;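 note: 0% = compound-free wells with enzyme and 100% = wells lacking proteasome; stock transfer was 100 nL into about 20 µL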
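Material: Human UCH37 enzyme supplied as purified proteasome complex | Schedule: 30 min preincubation with enzyme, 25 min cleavage at room temperature | Detection: AMC fluorescence 355/460 nm | Measure: % inhibition of Ub-AMC cleavage fluorescence | Controls: Wells without proteasome as full block, compound-free enzyme plus substrate as uninhibited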
Numbers without * were called inactive; ? = inconclusive; . = not tested or not shown.

mol,Bfl-1 A1 inh,Beta cell apopt,Beta2AR agonist,LANA-H2B inh,RanGTP-Imp inh,T cruzi repl,Calb FLC,UCH37 DUB inh
COCCCN1C(=O)c2[nH]nc(-c3cc(C)cc(C)c3O)c2C1c1ccc(O)c(OC)c1 (stereo not given),-0.9,.,-1,8.1,0.9,0,-2,-0.7
O=C(NC(=S)Nc1ccc(S(=O)(=O)Nc2nccs2)cc1)c1cccnc1,-0.9,-6,-4,5.1,3.7,-15,-4,.
CCN(CC)C(=O)CS(=O)CC(=O)Nc1cc(OCCOC)c(Cl)cc1Cl (stereo not given),0.8,-10,2,-63,3.2,4,-16,1.7
Cc1ccc(Cl)cc1N1CCN(C(=O)CCC(=O)O)CC1,-1.0,-3,1,-0.9,5.8,-5,-6,4.3
COc1ccc(S(=O)(=O)N2CCOCC2)cc1NC(=O)COc1ccc2ccc(=O)oc2c1,0.7,-7,14,-3.1,.,.,.,-37
CCc1ccc(OCCOCC(O)CNC2CCCC2)cc1 (stereo not given),0.6,0,-3,1.9,.,.,-1,-0.8
CCc1ccc(C2N3CC4([N+](=O)[O-])CN2CC([N+](=O)[O-])(C3)C4(C)C)cc1 (stereo not given),-0.7,-7,-3,2.6,3.3,-20,10,-0.7
COCCNC(=S)N1CCOCC1,0.6,-1,-1,3.9,1.8,5,-8,-3.9
Cc1cc(/C=C2\C(=N)N3N=C(C(C)C)SC3=NC2=O)c(C)n1-c1ccccc1,-0.1,.,7,5.8,-1.1,-1,-5,-120
O=C(CCN1CCCC1=O)NC1CCCc2c1cnn2-c1ccc(F)cc1F (stereo not given),0.9,-3,8,-3.8,4.8,3,-4,5.8
CCN1CCc2c(OCC(=O)N3CCC(C)CC3)cccc2C1=O,0.8,-3,-3,-0.2,-2.9,1,2,2.1
O=C(CNc1cccc(S(=O)(=O)N2CCCC2)c1)Nc1ccc(C(F)(F)F)cc1,-0.1,25,-2,-1.4,?,29,0,-0.8
Cc1nnc(-c2cnn(-c3ccccc3)c2N)n1Cc1cccc(C(F)(F)F)c1,-0.7,-4,-12,-1.7,-2.4,-9,-7,4.3
Cc1oc(-c2ccc(Cl)cc2)nc1CS(=O)CC(=O)NCc1ccccc1 (stereo not given),0.2,-8,8,0.8,-1.5,17,-2,-0.9
COc1ccc(-c2cc(-c3cccs3)nc3sc(C#N)c(N)c23)cc1,-1.0,1,-12,1.0,-19,15,68,-196
Cc1cc(C)nc(/N=C(\N)N2CCc3ccccc32)n1,-3.2,1,-3,-1.2,-1.5,1,3,.
C=CCOc1ccc(Oc2cc(C)nc(SC)n2)nn1,-0.4,-8,14,0.4,5.8,1,-4,1.6
O=C(OCCN1CCCCC1)c1cccc(F)c1,0.1,0,1,0.5,-2.6,-8,-4,4.0
CCSc1ncnc2c1oc1ccccc12,0.6,4,-3,-5.4,-0.6,-16,?,0.9
COc1cc(OC)cc(C(=O)Nc2ccc3c(c2)COC3=O)c1,-4.1,2,17,4.8,3.2,-19,10,-0.4
COc1ccc(OC(=O)CCN2C(=O)C3C4C=CC(C4)C3C2=O)cc1 (stereo not given),1.8,0,7,0.1,-2.6,-8,-4,0.7
CC(C)CC(=O)NC1(C(F)(F)F)C(=O)Nc2c1c(=O)n(C)c(=O)n2C (stereo not given),1.8,-5,-5,-24,.,.,11,5.9
NC(=O)C1CCN(Cc2nc3c(Br)cc(Br)cc3c(=O)[nH]2)CC1,-2.3,-5,6,.,2.7,-5,1,-1.1
c1ccc(Nc2scc(-c3ccccc3)[n+]2Cc2ccco2)cc1,-1.0,0,25,-1.0,6.1,-14,-10,-1.3
COC(=O)c1sc(NC(=O)c2ccco2)c(C#N)c1C,-1.3,14,-17,-2.3,-0.9,12,17,5.8
Cc1c(C(=O)NCC2CCCO2)oc2ccc(S(=O)(=O)N3CCCCC3)cc12 (stereo not given),0.1,-5,6,1.0,0.2,0,-1,3.9
Fc1cccc2sc(Nc3nc4c(F)cccc4s3)nc12,-1.7,.,-3,-4.1,0.3,0,-2,.
COc1ccc(C2C(=O)N(C3CCCCC3)CC(=O)N2CC2COc3ccccc3O2)cc1 (stereo not given),1.7,0,-8,-1.1,-1.3,17,2,3.2
COc1ccc(NC(=O)C2CCCN2C(=O)NCc2ccccc2)cc1 (stereo not given),0.0,-7,-5,-3.4,1.7,-16,-21,-1.2
Cc1cc(C)cc(NC(=O)Cc2ccc(S(=O)(=O)N3CCCC3)s2)c1,0.8,-11,4,3.8,.,.,.,1.6
Cc1c(C(=O)N2CCCC2)sc(NC(=O)c2ccc(Cl)cc2)c1C#N,0.1,12,3,-2.2,?,2,7,3.6
C=C(C)c1sc(-c2ccc(Cl)cc2)nc1C,-1.9,-19,-8,-2.6,?,-15,9,-0.4
COc1cc(/C=C/C(=O)N2CCN(c3n[nH]c(=O)[nH]c3=O)CC2)cc(OC)c1OC,0.3,-11,0,1.8,2.5,-8,1,-4.8
CC(C)(C)c1ccc(C(=O)C2CCCN(C(=O)CCn3cncn3)C2)cc1 (stereo not given),0.5,1,13,-10,2.4,7,-16,-1.3
COC(=O)CS(=O)(=O)c1cccc2cccnc12,0.3,-9,7,0.3,-1.9,-5,-3,4.3
CCc1ccc(OCC(=O)OC(C)C(=O)NC2CC2)cc1 (stereo not given),1.0,-4,3,1.7,2.7,-9,-10,-0.1
CC12CCC(c3c1nc1ccccc1[n+]3[O-])C2(C)C (stereo not given),0.6,-2,0,-4.6,11,-5,-10,0.0
Cc1ccccc1CS(=O)(=O)Cc1ccc(C(=O)NC2CCCC2)o1,0.2,-1,0,0.1,2.2,9,-3,0.7
CCC(C(=O)OC)n1c(-c2ccccc2)nc2ccccc2c1=O (stereo not given),-0.2,-2,4,0.8,0.2,-7,7,5.1
S=C(Nc1ccc2c(c1)OCO2)N1CCN(Cc2ccco2)CC1,0.5,-6,9,2.3,3.2,-9,-7,-0.4
CCN(CC)C(=O)CCCC(=O)N(CC)CC,0.7,-1,-6,-4.7,2.5,-12,15,0.3
O=C(CSc1nncn1-c1ccccc1)Nc1ccccc1F,1.1,-6,0,8.5,9.9,-12,2,-0.7
c1ccc(C(c2nnnn2C2CCCC2)N2CCN(c3ccccc3)CC2)cc1 (stereo not given),0.0,2,-3,1.4,1.2,20,7,0.6
COc1ccccc1N1CC(C(=O)Nc2ccc3c(c2)OCO3)CC1=O (stereo not given),0.0,4,0,-3.0,-2.1,9,-2,0.6
Cc1ccc(-n2c(N)c(C#N)c(-c3ccc(Cl)cc3)c(C#N)c2=O)cc1,-0.1,6,-8,-1.6,1.1,.,-4,-43
O=[N+]([O-])/C(N=Nc1ccccc1)=N\Nc1ccccc1,-0.2,0,0,0.7,?,-5,-41,.
Cn1c(=O)n(C)c2cc(S(=O)(=O)Nc3ccccc3)ccc21,1.3,-5,-2,2.9,3.8,5,3,1.2
CC(=O)c1cc2c(cc1NC(=O)CSc1nc3ccc(C)cc3[nH]1)OCO2,-0.2,-10,-3,-2.3,-1.1,11,2,-7.4
COc1ccc(C(c2nnnn2CCc2ccccc2)N2CCN(C3CCCC3)CC2)cc1OC (stereo not given),0.4,.,4,9.2,2.8,-23,-40,3.0
O=C(CN(C(=O)CCC(=O)Nc1nccs1)c1ccc2c(c1)OCO2)NCc1ccccc1,0.4,-3,-3,-3.9,1.9,14,7,1.2
Cc1ccc(N2CC(C(=O)Nc3cccc(C(=O)NC4CC4)c3)CC2=O)cc1 (stereo not given),0.1,-3,5,-6.0,.,.,.,0.4
COc1ccc(CCNS(=O)(=O)c2cn(C)c(=O)n(C)c2=O)cc1,0.7,-5,-1,2.3,-4.2,1,4,0.4
O=C1C(C=NCC2CCCO2)=C(O)c2ccccc21 (stereo not given),-1.4,-2,2,1.0,5.4,-4,-1,4.2
Cc1cc(C)c2c(NC(=S)NC(=O)c3ccccc3)n[nH]c2n1,0.0,1,-16,2.4,1.2,.,10,2.9
Cn1c(C(=O)NCCN2CCCCCC2)cc2c(=O)n(C)c3ccccc3c21,0.3,-6,9,-2.2,4.4,11,10,-6.5
O=C(O)c1cnn(-c2nc(-c3ccc(Cl)cc3)cs2)c1C(F)(F)F,-1.5,-6,11,3.2,0.8,-18,6,-12
Cn1c(=O)c2c(nc(SCc3ccccc3)n2Cc2ccc(Cl)cc2)n(C)c1=O,-0.3,21,1,9.9,?,10,0,5.9
CCCC12CN3CC(C)(CN(C1)C3c1ccc(OC(C)C)cc1)C2=O (stereo not given),0.3,-1,-2,1.1,?,-2,-6,-0.8
Cc1nc(C)c(C(=O)C2=C(O)C(=O)N(CCN(C)C)C2c2cccs2)s1 (stereo not given),1.3,-9,-5,3.7,-2.2,7,28,3.7
NC(=O)c1ccccc1N/C=C/C(=O)c1cccs1,-5.8,8,0,1.0,2.4,-2,4,-0.7

Part of the list above, with values under each structure.
Second line of a record: Bfl-1 A1 inh | Beta cell apopt | Beta2AR agonist | LANA-H2B inh | RanGTP-Imp inh | T cruzi repl | Calb FLC | UCH37 DUB inh
Cn1c(=O)c2c(nc(SCc3ccccc3)n2Cc2ccc(Cl)cc2)n(C)c1=O
 : -0.3 | 21 | 1 | 9.9 | ? | 10 | 0 | 5.9
COc1ccc(CCNS(=O)(=O)c2cn(C)c(=O)n(C)c2=O)cc1
 : 0.7 | -5 | -1 | 2.3 | -4.2 | 1 | 4 | 0.4

(cont.)
mol,Bfl-1 A1 inh,Beta cell apopt,Beta2AR agonist,LANA-H2B inh,RanGTP-Imp inh,T cruzi repl,Calb FLC,UCH37 DUB inh
COc1cc(F)ccc1S(=O)(=O)N1CCN(Cc2ccccc2)CC1,0.6,-5,-7,1.4,2.3,10,4,0.6
CCOc1cc(S(=O)(=O)N(CC)CC)ccc1F,-0.9,-4,2,-3.7,3.9,-16,1,1.5
CCCC1S/C(=N/N=C/c2ccc(OC)cc2)N(Cc2ccccc2)C1=O (stereo not given),-1.3,5,-7,-1.6,3.4,19,-59,.
O=C1CCCc2nc(N3CCN(C(=O)c4ccco4)CC3)ncc21,-0.2,1,-6,1.8,-1.0,6,0,-2.0
CCO[C@@H]1OC(C(=O)NC2CC2)=C[C@H](c2ccc(Br)cc2)[C@H]1CCCO,0.1,-4,-3,-1.2,?,10,2,2.1
COc1cc2c3c(c1)c(C1=NC(=S)NC1=O)c(O)n3C(C)(C)C=C2C,-0.5,3,-3,-0.3,0.4,7,0,4.6
Cc1ccc(C(=O)Cn2c(-c3ccccc3)noc2=O)cc1,-0.3,12,-3,-3.0,1.0,-10,13,4.0
Cc1cc(NC(=O)CN2CCN(S(=O)(=O)c3ccc4ccccc4c3)CC2)no1,0.4,-3,-6,2.0,4.0,1,2,-0.1
COC(=O)c1ccccc1NC(=O)C1CCN(C(=O)N2CCOc3ccccc32)CC1,-0.1,5,-7,1.4,-1.7,2,-1,7.6
CCCc1nc(SCC(=O)N2CCc3ccccc32)c2c(C)c(C)sc2n1,-0.5,3,.,-3.6,-1.1,-10,2,2.0
